Source: PubChem BioAssay
Menin-MLL FL inh = inhibitors of human menin-MLL interaction, wild-type MLL peptide; Fluorescence polarization, fluorescein-MLL peptide displacement from menin; FP activity change, % at 61.4 µM; 290,000 tested, under 10 active; AID 1766; inconclusive = falling polarisation curve, or a change in total fluorescence; inactive = total fluorescence flat and polarisation flat or rising; no compound was filed as active; the % refers to the polarisation; negative = inhibition;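 further: % of control where 0% means no effect; inhibitors lower the polarisation; unlabelled MLL peptide was the positive control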
gsp agonist = gsp mutant agonism; gsp mutant cells, cAMP HTRF, 30 min; control for the full effect not named in the record; Potency, µM (titrated, usually from 76.9 µM), without a hit: at the top dose activation (cAMP increase), most hits filed as activators; hit rate 0.13% among 340,000; active = well fitted activation curve with a large enough effect; inconclusive = small, poorly fitted or top-dose-only effect, or another doubt; inactive = no such curve, though single readings can be large or run the other way; cell line not stated here;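 further: phosphodiesterase inhibitor Ro 20-1724 added with compounds to block cAMP breakdown; potency means the concentration at half of the fitted maximal effect; nearly all actives have a fitted effect of over 60% in size; about a fifth of the inactives were tested at one dose only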
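Cells in DMEM/10% FBS with G418 were pretreated with compounds in DMSO plus […] (300 uM stock) for 30 min at 37C. cAMP was measured by HTRF (cAMP-d2 plus anti-cAMP antibody-K) after 30 min at room temperature.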
ClpP mod = qHTS Assay for Activators of ClpP; Potency, µM (titrated, usually from 57.5 µM), without a hit: at the highest dose activity change, negative = active; AID 651965, 2013; purified B. subtilis ClpP, FRET peptide cleavage, 20 min; hit rate 1.9% among 340,000; active = well fitted falling curve with a large enough effect; inconclusive = small, poorly fitted or top-dose-only effect; inactive = no such curve, though single readings can be large or run the other way; further: potency means the concentration at half of the fitted maximal effect; the source files actives as falling curves though it sought activators and does not explain the sign; nearly all actives have a fitted effect of over 65% in size; many hits overshoot -100%
Target sequence (P80244 whole entry, looked up): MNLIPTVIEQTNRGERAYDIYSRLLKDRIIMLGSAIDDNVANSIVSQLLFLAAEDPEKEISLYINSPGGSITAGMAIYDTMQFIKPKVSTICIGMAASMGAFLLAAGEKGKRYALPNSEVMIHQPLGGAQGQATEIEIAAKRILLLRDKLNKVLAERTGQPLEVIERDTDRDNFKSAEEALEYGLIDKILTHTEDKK
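Buffer: 100 mM Tris/HCl pH8, 100 mM KCl, 0.05% low protease BSA, 2.5% glycerol, 0.01% Tween-20. ClpP 10 microg/mL final; 20 min RT; delta FRET normalized to ADEP and DMSO controls.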
D2 agonist = activates the human D2 dopamine receptor | P14416 | DiscoveRx PathHunter D2 beta-arrestin, luminescence, 90 min; 100% = 57 uM dopamine signal | activation, % (concentration not given with the values) | hit rate 0.084% among 360,000; in the data active = activation above about 40%; inconclusive = about 15% to 40%; inactive = below about 15%; further: compound concentration not given in the record; the text of the record calls up to 30% inactive
Target sequence (P14416 whole entry, looked up): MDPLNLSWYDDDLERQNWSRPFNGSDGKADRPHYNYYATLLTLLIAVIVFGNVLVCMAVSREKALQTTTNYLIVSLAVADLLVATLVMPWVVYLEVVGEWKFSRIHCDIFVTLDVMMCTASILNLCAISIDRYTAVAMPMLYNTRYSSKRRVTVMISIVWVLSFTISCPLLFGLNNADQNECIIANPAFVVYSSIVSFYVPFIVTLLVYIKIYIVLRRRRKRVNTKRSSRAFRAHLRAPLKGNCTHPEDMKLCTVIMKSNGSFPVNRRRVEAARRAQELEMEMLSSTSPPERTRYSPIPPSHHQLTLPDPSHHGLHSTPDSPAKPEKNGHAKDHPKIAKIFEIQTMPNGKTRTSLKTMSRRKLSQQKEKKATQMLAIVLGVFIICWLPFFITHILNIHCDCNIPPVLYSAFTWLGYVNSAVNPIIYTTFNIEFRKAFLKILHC
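DiscoveRx PathHunter D2 beta-arrestin cells (2,100/well) attached overnight, then compound-stimulated 90 min at 37 C in HBSS/10 mM HEPES/0.1% Tween-20 buffer; beta-galactosidase complementation read by luminescence after 1 h at ambient temperature. Dopamine 57 uM final (EC100) as control.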
PINK1 modulator = changes PINK1 expression. Potency, µM (series often up to 76.6 µM), for inactives: at the top dose activation (PINK1 increase), actives largely listed as activators. PINK1 immunofluorescence, high-content cytometry, 24 h. hit rate 0.2% among 410,000; active = well fitted activation curve with a large enough effect; inconclusive = small, poorly fitted or top-dose-only effect; inactive = flat fitted curve, though single readings scatter; cell line not stated here;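 further: potency means the concentration at half of the fitted maximal effect; % of control where 0% means no effect; nearly all actives have a fitted effect of over 65% in size; a mitochondrial uncoupler was the plate control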
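Readout is PINK1 immunofluorescence, quantified alongside mitochondrial, cell and nuclear markers by laser-scanning microplate cytometry. Cells from a stable line were exposed to compound titrations (5 concentrations) for 24 hours, with CCCP controls.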
gsp antag = gsp mutant antagonism | gsp-mutant cells, cAMP HTRF, 30 min; control for the full effect not named in the record | Potency, µM (highest dose often 76.9 µM), inactives show at the top dose activity change, negative = inhibition, usual class: inhibitors | hit rate 0.4% among 340,000; active = falling curve of any shape with a large fitted effect; inconclusive = falling curve, mostly with a smaller effect; inactive = flat or rising curve; cell line not stated here;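 further: intracellular cAMP measured with PDE inhibitor Ro 20-1724 present during compound exposure; potency means the concentration at half of the fitted maximal effect; on the % scale 0 is the no-effect control and ±100 the full control effect; nearly all actives have a fitted effect of over 65% in size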
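Cells in G418 medium, seeded 16-24 h, 37C; buffer exchange to DPBS + 1 mM CaCl2, 0.5 mM MgCl2, 0.05% BSA; cpds in DMSO + […] (300 uM stock), 30 min 37C; HTRF cAMP detection.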
Sfp inh = Sfp phosphopantetheinyl transferase inhibition. AID 1490. Biochemical Sfp PPTase activity, qHTS. Potency, µM, without a hit: max response, negative = inhibition, most hits filed as inhibitors. hit rate 3.5% among 310,000; active means well fitted inhibition curve with a large enough effect; inconclusive means small, poorly fitted or top-dose-only effect, or another doubt; inactive means no such curve, though single readings can be large or run the other way;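 further: the enzyme is Sfp with the accession as filed and its product quenches rhodamine fluorescence; potency means the concentration at half of the fitted maximal effect; 0% = enzyme reaction without inhibitor and -100% = no enzyme wells; top concentration of the series not given in the record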
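Buffer: 50 mM Hepes-Na pH 7.6, 10 mM MgCl2, 0.01% Nonidet P-40, 0.01% BSA. Enzyme 15 nM, pre-exposed to compound 15 min; substrates then added and fluorescence change tracked over 30 min.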
An asterisk follows results filed as active; ? = inconclusive; . = not tested or not shown; & = joins results of further samples; [ ] = remark or other dose.

SMILES	Menin-MLL FL inh	gsp agonist	ClpP mod	D2 agonist	PINK1 modulator	gsp antag	Sfp inh
COc1cc2c(cc1OC)C(COc1cccc(C(F)(F)F)c1)NCC2 (configuration not stated)	-0.6	28%	1.3%	-8.6	1.7%	5%	6%
CCOC(=O)c1c(NC(=O)Cc2cccs2)sc(C(=O)NC2CCCCC2)c1C	0.4	?	0.7%	-1.2	4.2%	31%	22%
CNC(=O)c1nc(C)n(-c2ccc([N+](=O)[O-])cc2)n1	-4.9	7%	.	1.3	0.3%	5%	19%
CCO[C@@H]1OC(C(=O)NCc2ccccc2)=C[C@H](c2ccc(C(F)(F)F)cc2)[C@H]1CCCO	3.9	0%	-3.0%	-0.3	15%	-13%	19%
O=C(CSc1ccccn1)Nc1ccccc1F	1.3	-38%	0.7%	-2.8	2.8%	-5%	9%
CCOC(=O)C1CCN(C(=O)c2cc3c(OC)c(OC)c(OC)cc3[nH]2)CC1	1.8	-5%[15.4 µM]	0.4%	3.3	-0.2%	-6%	24%
Cc1c(NC(=O)COC(=O)C2CC3C=CC2C3)c(=O)n(-c2ccccc2)n1C (configuration not stated)	1.1	?	-0.4%	-3.7	-0.3%	2%	7%
CCOC(=O)/C(=C\c1cccnc1)C(=O)c1cc(C(C)=O)c(Nc2ccccc2)s1	2.7	14%	-2.0%	-15	-2.8%	10%	40µM*
O=C1/C(=C/c2c[nH]c3ccccc23)CCC/C1=C\c1c[nH]c2ccccc12	?	-7%	-1.1%	-3.8	6.2%	-8%	50µM*
Cc1noc(C)c1C(=O)N1CCC2(CC1)CN(c1ccccc1)C2	3.1	.	.	.	1.3%	.	-9%
COc1cccc(Oc2nc(-c3ccncc3)nc3ccccc23)c1	3.8	7%[15.4 µM]	-1.1%	1.3	6.7%	-7%	?
CCSc1nnc(NC(=O)c2cccc3ccccc23)s1	0.4	-1%	-20%	0.9	6.0%	4%	9%
CC(C)n1c(NCc2ccccc2O)nc2ccccc21	-4.5	-5%	.	-0.2	4.3%	-7%	7%
CCc1ccccc1N(CC(=O)NCC1CCCO1)C(=O)CCC(=O)Nc1cc(C)on1 (configuration not stated)	0.6	23%[15.4 µM]	.	0.3	1.1%	.	20%
Cc1cccc(N(C(=O)C(F)(F)F)C(C(=O)NC2CCCCC2)c2cccs2)c1 (configuration not stated)	-0.3	-60%[inhibitor]	2.3%	-0.7	?	4%	6%
O=C(O)c1cccc(NS(=O)(=O)c2ccc(C3CCCCC3)cc2)c1	-8.5	-12%[15.4 µM]	.	4.3	-1.3%	-2%	10%
O=C(N/N=C/c1c[nH]c2ccccc12)c1cccc(O)c1	2.2	47%	-2.0%	5.6	-1.9%	5%	14%
CC(C)CNC(=O)CN1C(=O)NC2(CCc3ccccc32)C1=O (configuration not stated)	-6.5	-2%[15.4 µM]	.	-4.6	1.8%	5%	16%
O=C(CN1C(=O)NC2(CCCCCC2)C1=O)c1ccc(F)cc1	.	0%[15.4 µM]	-0.3%	-8.6	-1.0%	15%	.
CCOc1ccc(CC(=O)NNC(=S)Nc2ccccc2)cc1Br	6.5	12%	-3.5%	-4.4	-2.5%	-6%	10%
COc1ccc(CN2C3CCCC2CC(NC(=O)Nc2cccc(C)c2)C3)cc1 (configuration not stated)	3.6	-6%	-0.1%	-1.0	0.4%	6%	8%
COc1cc(CN2C[C@@H](CO)O[C@@H](n3cnc4c(N5CCN(C)CC5)ncnc43)C2)cc(OC)c1OC	.	.	0.6%	-4.3	3.2%	.	.
CC(=O)C1=CCC(c2ccc(C)cc2)N(S(=O)(=O)c2ccc(C)cc2)C1 (configuration not stated)	.	.	-0.6%	-7.5	2.8%	.	.
O=C(c1ccc(S(=O)(=O)c2ccc(Cl)cc2)cc1)N1CCOCC1	2.5	-7%[15.4 µM]	.	1.1	0.8%	.	8%
Cc1ccc(S(=O)(=O)c2c(CO)c(-c3ccccc3)nn2C)cc1	-0.5	9%[15.4 µM]	.	0.0	0.6%	-11%	6%

(list continues)
SMILES	Menin-MLL FL inh	gsp agonist	ClpP mod	D2 agonist	PINK1 modulator	gsp antag	Sfp inh
COc1ccc(NC(=O)c2cccc3c(-c4cccnc4)coc23)cc1	.	.	4.2%	5.6	3.1%	.	.
CN(CCNC(=O)C1CCCN(c2ncnc3c2nc2n3CCCCC2)C1)Cc1ccccc1 (configuration not stated)	4.0	-18%	2.6%	-1.9	4.4%	1%	22%
C/C(Cn1nnc([N+](=O)[O-])n1)=N\NC(=O)c1ccccc1	0.2	-59%[inhibitor]	0.1%	6.8	.	-1%	-4%
CC1(C(=O)Nc2ccc(Cl)cc2)Cc2c(-c3cccc(C(N)=O)c3)ccnc2O1 (configuration not stated)	.	.	-0.6%	1.8	2.1%	.	.
CC(=O)c1c(C)n(CCc2ccc(Cl)cc2)c2ccc(O)cc12	2.1	0%[15.4 µM]	0.6%	2.2	-1.1%	-3%	16%
CN(Cc1ccccc1)C(=O)CN(Cc1ccccc1)S(C)(=O)=O	-0.2	14%	0.3%	7.3	-0.5%	6%	4%
O=C(COC(=O)/C=C/c1ccccc1)Nc1nnc(-c2ccccc2)o1	.	-2%[15.4 µM]	.	-1.4	-2.1%	0%	.
FC(F)(F)c1nc(SCc2ccccc2)n[nH]1	.	6%[15.4 µM]	.	-21	0.1%	-3%	.
CCC1SC(C)C/C(=N/NC(N)=O)C1C (configuration not stated)	1.1	-2%[15.4 µM]	1.2%	-0.8	-1.2%	7%	2%
O=C(O)c1c2c(nc3ccccc13)/C(=C/c1ccc(OC(F)F)cc1)CCC2	0.3	-19%	.	0.0	-0.9%	-17%	-9%
N#C/C(=C/c1ccc(F)cc1)S(=O)(=O)c1ccccc1	15	-8%[15.4 µM]	.	0.0	-1.5%	13%	-26%
COc1cc2ccc(=O)oc2cc1O	?	?	3.8%	-3.6	0.8%	-10%	4%&11%&-11%
Cc1nnc(SCC(=O)NC(C)(C)C)n1NCc1ccc(N(C)C)cc1	-0.1	5%	.	-1.4	0.2%	2%	14%
COc1ccc(-c2nc3cc(C)ccn3c2NC2CCCCC2)cc1SC1CCCCC1	.	.	?	6.0	?	-2%	.
Cc1ccc(-c2c3c(=O)n(C)c(=O)n(C)c3cn2CCCN2CCOCC2)cc1	1.7	?	-7.3%	-3.3	1.4%	-2%	10%
Cc1cc(C(=O)CSc2nncs2)c(C)n1-c1ccc2c(c1)OCO2	2.3	-42%[inhibitor]	0.4%	0.9	.	?	-9%
Cn1c(NCCN2CCCC2)nc2cc(-c3ccsc3)sc2c1=O	.	.	?	9.5	-0.9%	.	.
CCCC(=O)N1CCC1(C)C(=O)NS(=O)(=O)c1cccc(F)c1 (configuration not stated)	.	.	-1.0%	-5.1	1.0%	.	.
O=C(CN(Cc1ccc(Cl)cc1)C(=O)c1csnn1)NCc1ccc(F)cc1	.	0%[15.4 µM]	-2.1%	-6.0	0.0%	4%	10%
COc1ccc(OCC(O)Cn2c(N3CCCCC3)nc3c2c(=O)[nH]c(=O)n3C)cc1 (configuration not stated)	-1.2	-33%[inhibitor]	-0.7%	-2.1	0.5%	-6%	3%
COc1cc(NC(=O)Nc2cccc(Cl)c2)c(C(=O)O)cc1OC	-3.4	24%	4.1%	-5.2	0.6%	0%	-7%
CC(NC(=O)c1ccccc1[N+](=O)[O-])C1CC2CCC1C2 (configuration not stated)	-1.3	-1%[15.4 µM]	25µM*	2.7	1.6%	5%	5%
CCN(C(=O)COC(=O)c1ccc(Br)o1)C1CCCCC1	1.0	-18%	.	3.3	0.8%	-7%	21%
COC(=O)c1ccc(-c2csc(NC(=O)C3=COCCO3)n2)cc1	.	-35%[inhibitor]	401%	0.2	1.7%	-9%	.
O=C(N/C(=C/c1ccccc1)C(=O)N1CCCCC1)c1ccccc1	.	-25%[15.4 µM]	?	-2.8	-0.3%	-10%	-3%

Additional structures.
SMILES	Menin-MLL FL inh	gsp agonist	ClpP mod	D2 agonist	PINK1 modulator	gsp antag	Sfp inh
CC(=O)Nc1cccc(CCc2nc3ccccc3[nH]2)c1	2.8	8%[15.4 µM]	-17%	1.8	0.5%	5%	4%
COc1ccc(C(=O)N/N=C/c2c[nH]c3ccccc23)cc1	3.7	-2%[15.4 µM]	0.7%	1.9	-0.5%	-9%	17%
CC1CCCN(C(c2cccs2)c2nnnn2Cc2ccccc2)C1 (configuration not stated)	9.6	28%	-1.5%	-1.2	-0.1%	?	-20%
CCCCN(C)C(=S)Nc1ccc2nc(N3CCN(CC)CC3)cc(C)c2c1	7.7	-13%	5.6%	-4.3	2.0%	7%	6%
O=C(CN1CCN(c2ccccn2)CC1)Nc1ccccc1F	-5.2	-8%	-4.3%	9.2	-1.2%	-2%	15%
CCCn1c(CCC(=O)O)nc2cc(S(=O)(=O)N3CCCC3)ccc21	5.5	-1%[15.4 µM]	.	-0.5	2.4%	6%	23%
CN1CCNC(=O)C1CC(=O)O (configuration not stated)	-0.1	1%	-0.1%	-2.4	15%[38.3 µM]	0%	7%
CC(=O)n1nc(-c2ccncc2)nc1SCC(=O)Nc1cccc(Cl)c1	8.8	8%	1.2%	1.7	-1.1%	?	10%
Cc1cc(/C=C2\SC(=S)N(C)C2=O)c(C)n1-c1cccc(O)c1	?	2%	0.9%	7.3	?	-36%	?
CN(C)CCNc1oc(-c2ccccc2F)nc1C#N	1.0	20%	4.1%	-3.4	1.3%	9%	14%
Cc1ccc(NC(=O)C(=O)c2ccc(C)cc2)cc1	-1.1	-2%[15.4 µM]	.	-4.4	5.5%	.	13%
Cc1cc(C)n(C(=O)CCCCCCCCC(=O)n2nc(C)cc2C)n1	8.0	-34%	-21%	-6.0	1.5%	18%	22%
N#CC(=C=[N-])c1nc2ccccc2nc1-[n+]1ccccc1	?	3%&-7%	-3.2%&-1.7%	-4.5&-3.7	0.6%&2.2%	-17%&-28%	5%&11%
COc1ccc(S(=O)(=O)N(C)CC(=O)Nc2ccc(F)cc2)cc1	5.5	-34%[inhibitor]	-17%	2.1	.	5%	8%
CCOC(=O)C1=C(c2ccccc2)NC(=O)NC1c1ccc(O)c(Cl)c1 (configuration not stated)	-5.6	6%	0.1%	?	3.0%	19%	-3%
CCOC(=O)c1[nH]c(C)c(C(=O)Nc2ccc(C)c(F)c2)c1C	4.3	6%	3.0%	-0.3	20%[38.3 µM]	7%	9%
CC(C)Cn1c2ccccc2c2cc(C(=O)O)ccc21	3.3	12%	-23%	-1.7	2.8%[38.3 µM]	-12%	12%
